# PrP UTR inh = inhibition of PrP 5' UTR reporter expression | cell-based PrP 5' UTR mRNA reporter, plate reader | inhibition, % (test concentration not listed) | 0.35% of 340,000 active | AID 488862;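 active means every replicate at 50% or more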;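 further: 0 = median of the neutral control wells; tested in H4 reporter cells; numbers are from one replicate; inactives centre near -14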
# Autofluor counter = flagged as autofluorescent in microsphere protease counterscreen | compound autofluorescence counterscreen, microsphere flow cytometry; stronger effect = higher value | fluorescence intensity (test concentration not listed) | 3.1% of 360,000 active;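 active means at least 3 SD above the mean of all compounds, about 16000 in these data; inconclusive means too few beads counted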;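 further: 100 nL of 1 mM stock went into each well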
# Mtb hypoxia inh = inhibitors of hypoxia-regulated fluorescent reporter in Mycobacterium tuberculosis. M. tuberculosis hypoxia-regulated fluorescent reporter, fluorescence. fluorescence inhibition, % (no concentration beside the values). 0.1% of 300,000 active. AID 1159583;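 active means 35 to 45% if threefold the growth effect, above 45% if 1.5-fold the growth effect; inactive means the rest, general growth blockers included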;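 further: wells of about 50 µL received 100 nL stock; 0% = vehicle wells and 100% = reference inhibitor wells; whole bacteria with a GFP reporter of the hypoxia response; strong numbers were not always called active; many hits fall short of the cut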
# Sa ugtP lethal = compounds lethal to S. aureus RN4220 ugtP deletion mutant; OD600 growth, 16 h; some inactives read as strong as hits; growth inhibition, % (test concentration not listed); 0.54% of 330,000 active;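 active means z-score under -3 and OD600 up to 0.15 on both plates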;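 further: plate controls were untreated wells for no effect and antibiotic for full effect; wells of about 80 µL received 100 nL stock; the first replicate is given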
# BJeLR lethal = BJeLR cell viability loss | BJeLR (HRASV12) viability, CellTiter-Glo ATP luminescence, 48 h; reference of the scale not given here | inhibition, % (test concentration not listed) | 0.17% of 300,000 active | AID 1554;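 active means replicate mean above 50%; inconclusive means above 50% but judged a plate artefact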;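 further: 50 nL library stock added to about 25 µL; numbers are from one replicate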
# RN4220 kill = kills Staphylococcus aureus RN4220; inhibition, % (test concentration not listed); S. aureus RN4220 growth, OD600, 16 h; 0.33% of 330,000 active;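 active means z-score of -3 or lower and OD600 up to 0.18 on both plates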;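 further: plate controls were untreated cells for no effect and reference antibiotic for full effect; stock transfer was 100 nL into about 80 µL; one replicate is shown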
# Mtb hypoxia inh growth = recorded beside Mtb hypoxia inh, whose call it bears; growth inhibition, %; measured here: M. tuberculosis growth (absorbance);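 0% = vehicle and 100% = reference antibiotic; read after six days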
# * = called active by the depositor; ? = inconclusive; . = not tested or not shown.
1: COc1ccccc1C(=O)Nc1ccc(C)c(S(=O)(=O)N2CCCCC2)c1
2: Cc1cccc(Nc2nc3c(S(=O)(=O)c4ccccc4)nnn3c3ccccc23)c1C
3: O=C(Nc1cccc(Cl)c1N1CCCC1)c1cc2ccccc2o1
4: CCCN(C(=O)c1cc(S(=O)(=O)N2CCCCC2)ccc1Cl)C1CCS(=O)(=O)C1 (stereo not drawn)
5: Cn1c(NC(=O)c2ccco2)c(-c2ccccc2Cl)c(=O)c2ccccc21
6: COC(=O)COC(=O)CC(CC(N)=O)c1ccccc1 (stereo not drawn)
Compound,1,2,3,4,5,6
PrP UTR inh,-7,-41,-34,12,6,-31
Autofluor counter,5726,2116,4795,4631,5598,22984*
Mtb hypoxia inh,-2,.,.,3,-3,15
Mtb hypoxia inh growth,13,.,.,-5,7,10
Sa ugtP lethal,4,.,89*,6,0,-9
BJeLR lethal,.,-6,-4,-6,-1,-5
RN4220 kill,3.5,.,-12,2.2,2.3,4.6

7: Cc1cc(N2C(=O)C(O)=C(C(=O)c3ccco3)C2c2ccccc2F)no1 (stereo not drawn)
8: CCc1ccc2nc(N3C(=O)C(O)=C(C(=O)c4ccco4)C3c3cccs3)sc2c1 (stereo not drawn)
9: CCOC(=O)Nc1ccc2c(c1)N(C(=O)CCN(CC)CC)c1ccccc1CC2
10: CC1C(c2ccccc2)C(C#N)(C#N)C2(C#N)C(=O)NC1(N)C2C (stereo not drawn)
11: COc1ccccc1C(=O)Nc1ccc(N2CCN(C(C)=O)CC2)cc1
12: O=S(=O)(Nc1ccc2nc(C(F)(F)F)[nH]c2c1)c1ccccc1
Compound,7,8,9,10,11,12
PrP UTR inh,-15,-47,-24,-36,-10,-16
Autofluor counter,3961,3408,3940,37669*,1976,11583
Mtb hypoxia inh,7,.,3,6,-5,18
Mtb hypoxia inh growth,6,.,2,17,-3,7
Sa ugtP lethal,16,.,3,-1,4,3
BJeLR lethal,5,6,-2,-5,-6,-1
RN4220 kill,31,.,0.3,9.9,6.5,2.7

# Next section (two carried over from the part before).
11: COc1ccccc1C(=O)Nc1ccc(N2CCN(C(C)=O)CC2)cc1
12: O=S(=O)(Nc1ccc2nc(C(F)(F)F)[nH]c2c1)c1ccccc1
13: Cc1ccc(-n2c(C)cc(/C=N/NC(=O)CC3(C)OCCO3)c2C)cc1
14: CC(=O)NCCNC(=O)c1cccc(NS(=O)(=O)c2ccc3c(c2)OCCO3)c1
15: CN(C)CCCOC(=O)N1c2ccccc2C=Cc2ccccc21
16: COc1cc([N+](=O)[O-])cc(C=NNC(=O)CSc2nnc(-c3ccccc3)n2C)c1O
17: Cc1cc(=O)[nH]c(SCC(=O)Nc2nc3c(s2)CCCC3)n1
18: Cc1nc(SCC(=O)N2CCCCCC2)[nH]c(=O)c1C
Compound,11,12,13,14,15,16,17,18
PrP UTR inh,-10,-16,-13,-16,-9,.,-27,-6
Autofluor counter,1976,11583,3113,5965,3645,.,5333,5000
Mtb hypoxia inh,-5,18,.,9,-10,5,7,7
Mtb hypoxia inh growth,-3,7,.,-5,1,-6,14,-5
Sa ugtP lethal,4,3,.,1,3,3,-13,13
BJeLR lethal,-6,-1,-4,11,-3,.,2,6
RN4220 kill,6.5,2.7,.,1.3,1.1,5.5,15,5.7

# 12 of the compounds above, with values under each structure.
# Results follow in this order: PrP UTR inh | Autofluor counter | Mtb hypoxia inh | Mtb hypoxia inh growth | Sa ugtP lethal | BJeLR lethal | RN4220 kill
1: COc1ccccc1C(=O)Nc1ccc(C)c(S(=O)(=O)N2CCCCC2)c1
 : -7 | 5726 | -2 | 13 | 4 | . | 3.5
2: Cc1cccc(Nc2nc3c(S(=O)(=O)c4ccccc4)nnn3c3ccccc23)c1C
 : -41 | 2116 | . | . | . | -6 | .
3: O=C(Nc1cccc(Cl)c1N1CCCC1)c1cc2ccccc2o1
 : -34 | 4795 | . | . | 89* | -4 | -12
4: CCCN(C(=O)c1cc(S(=O)(=O)N2CCCCC2)ccc1Cl)C1CCS(=O)(=O)C1 (stereo not drawn)
 : 12 | 4631 | 3 | -5 | 6 | -6 | 2.2
5: Cn1c(NC(=O)c2ccco2)c(-c2ccccc2Cl)c(=O)c2ccccc21
 : 6 | 5598 | -3 | 7 | 0 | -1 | 2.3
6: COC(=O)COC(=O)CC(CC(N)=O)c1ccccc1 (stereo not drawn)
 : -31 | 22984* | 15 | 10 | -9 | -5 | 4.6
7: Cc1cc(N2C(=O)C(O)=C(C(=O)c3ccco3)C2c2ccccc2F)no1 (stereo not drawn)
 : -15 | 3961 | 7 | 6 | 16 | 5 | 31
8: CCc1ccc2nc(N3C(=O)C(O)=C(C(=O)c4ccco4)C3c3cccs3)sc2c1 (stereo not drawn)
 : -47 | 3408 | . | . | . | 6 | .
9: CCOC(=O)Nc1ccc2c(c1)N(C(=O)CCN(CC)CC)c1ccccc1CC2
 : -24 | 3940 | 3 | 2 | 3 | -2 | 0.3
10: CC1C(c2ccccc2)C(C#N)(C#N)C2(C#N)C(=O)NC1(N)C2C (stereo not drawn)
 : -36 | 37669* | 6 | 17 | -1 | -5 | 9.9
11: COc1ccccc1C(=O)Nc1ccc(N2CCN(C(C)=O)CC2)cc1
 : -10 | 1976 | -5 | -3 | 4 | -6 | 6.5
12: O=S(=O)(Nc1ccc2nc(C(F)(F)F)[nH]c2c1)c1ccccc1
 : -16 | 11583 | 18 | 7 | 3 | -1 | 2.7

# Other results follow:
19: N#Cc1cnn(-c2cccc(Cl)c2)c1-n1cccc1
20: N#C/C(=C\c1cn(CC(=O)O)c2ccccc12)C(=O)NCc1ccccc1
21: COC(=O)c1ccccc1NC=C1C(=O)OC2(CCCCC2)OC1=O
22: O=C1N/C(=N\S(=O)(=O)Cc2ccccc2)S/C1=C/c1cc([N+](=O)[O-])ccc1O
23: COc1ccc(-c2cc(C(=O)NCCN3CCOCC3)c3ccccc3n2)c(OC)c1
24: COc1ccc(CC(=O)NNS(=O)(=O)c2ccccc2[N+](=O)[O-])cc1
Compound,19,20,21,22,23,24
PrP UTR inh,-4,-3,-3,-11,-41,-13
Autofluor counter,6376,.,4703,?,8248,3677
Mtb hypoxia inh,17,-5,13,13,2,16
Mtb hypoxia inh growth,6,1,14,8,9,0
Sa ugtP lethal,7,-4,-3,1,-6,3
BJeLR lethal,-2,5,1,2,-3,-1
RN4220 kill,6.1,-0.7,0.2,4.6,-0.3,3.2

25: CCCC(=O)N(CCN(C(=O)CCC)c1ccccc1)c1ccccc1
26: O=C(CSc1n[nH]c(=O)n1C1CC1)Nc1ccccc1
27: CSc1ccc(C2CC(=O)Nc3c2c(=O)n(C)c(=O)n3C)cc1 (stereo not drawn)
28: CCOc1ncccc1C(=O)OCC(=O)NC1CCCCCC1
29: CC(C)c1ccc(NC2=CC(=O)CC(C)(C)C2)cc1
30: c1ccc2c(c1)CCc1snnc1-2
Compound,25,26,27,28,29,30
PrP UTR inh,-24,-6,-8,-8,-10,-9
Autofluor counter,10254,5573,4721,6631,3039,3224
Mtb hypoxia inh,5,7,12,3,5,-2
Mtb hypoxia inh growth,7,3,6,1,6,7
Sa ugtP lethal,-3,10,-1,-1,6,8
BJeLR lethal,1,14,5,.,-1,-3
RN4220 kill,2.4,2.9,3.9,1.6,-1.0,5.2

31: COc1cc(C2c3c([nH]c(=O)[nH]c3=O)Nc3ccc4ccccc4c32)ccc1O (stereo not drawn)
32: CCc1cc(C(=O)O)c(NC(=O)c2cc(OC)c(OC)c(OC)c2)s1
33: NS(=O)(=O)c1ccc(NN=Cc2cn(-c3ccccc3)nc2-c2cccs2)c([N+](=O)[O-])c1
34: CC1CCCCC1N1CCN(C(=O)c2cccc(F)c2)CC1 (stereo not drawn)
35: CCOc1ccc(CNC(=O)CCCN2C(=O)C(c3ccccc3)Oc3cccnc32)cc1 (stereo not drawn)
36: Cc1ccc(NC(=O)N/C=C/c2ccc(Cl)cc2)cc1
Compound,31,32,33,34,35,36
PrP UTR inh,-31,-24,.,-25,-9,-39
Autofluor counter,2696,4145,.,2826,4823,2605
Mtb hypoxia inh,7,-9,1,.,5,.
Mtb hypoxia inh growth,4,-5,3,.,-1,.
Sa ugtP lethal,5,6,5,-6,10,-14
BJeLR lethal,0,-4,.,5,-1,6
RN4220 kill,-0.1,7.1,-9.0,0.0,-0.5,-4.3

# Compound activity: PubChem BioAssay, several laboratories
